# ClpP mod = qHTS Assay for Activators of ClpP | ATP-dependent Clp protease proteolytic subunit (Bacillus subtilis (strain 168)), P80244 | purified B. subtilis ClpP, FRET peptide cleavage, 20 min | Potency, µM (highest dose often 57.5 µM), inactives show top-dose activity change, negative = active | 340,000 compounds, 1.9% hits; active = well fitted falling curve with a large enough effect; inconclusive = small, poorly fitted or top-dose-only effect; inactive = no such curve, though single readings can be large or run the other way; further: potency means the concentration at half of the fitted maximal effect; the source files actives as falling curves though it sought activators and does not explain the sign; nearly all actives have a fitted effect of over 65% in size; many hits overshoot -100%
# Target sequence (P80244 whole entry, looked up): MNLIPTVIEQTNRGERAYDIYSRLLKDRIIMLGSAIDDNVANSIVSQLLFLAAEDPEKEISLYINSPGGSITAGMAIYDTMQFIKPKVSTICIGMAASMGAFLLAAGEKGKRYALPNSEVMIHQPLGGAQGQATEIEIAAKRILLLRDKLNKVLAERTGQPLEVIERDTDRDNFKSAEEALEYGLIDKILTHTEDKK
#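 Buffer: 100 mM Tris/HCl pH8, 100 mM KCl, 0.05% low protease BSA, 2.5% glycerol, 0.01% Tween-20. ClpP 10 microg/mL final; 20 min RT; delta FRET normalized to ADEP and DMSO controls.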
# Menin MLL FP FL = qHTS Assay for Inhibitors Targeting the Menin-MLL Interaction in MLL Related Leukemias: Competition With Fluorescein Labeled MLL-derived Peptide; FP activity change, % at 61.4 µM; Fluorescence polarization, fluorescein-MLL peptide displacement from menin; AID 1766, 2009; 290,000 tested, under 10 active; inconclusive = falling polarisation curve, or a change in total fluorescence; inactive = total fluorescence flat and polarisation flat or rising; no compound was filed as active; the % refers to the polarisation; negative = inhibition;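 further: % of control where 0% means no effect; inhibitors lower the polarisation; unlabelled MLL peptide was the positive control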
# gsp antag = qHTS for Antagonists of gsp, the Etiologic Mutation Responsible for Fibrous Dysplasia/McCune-Albright Syndrome: qHTS; AID 624288, 2012; gsp-mutant cells, cAMP HTRF, 30 min; control for the full effect not named in the record; 340,000 compounds, 0.4% hits; Potency, µM (highest dose often 76.9 µM), inactives show at the top dose activity change, negative = inhibition, most hits filed as inhibitors; active = falling curve of any shape with a large fitted effect; inconclusive = falling curve, mostly with a smaller effect; inactive = flat or rising curve; cell line not stated here;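 further: intracellular cAMP measured with PDE inhibitor Ro 20-1724 present during compound exposure; potency means the concentration at half of the fitted maximal effect; on the % scale 0 is the no-effect control and ±100 the full control effect; nearly all actives have a fitted effect of over 65% in size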
#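 G418-selected cells were plated in DMEM/10% FBS for 16-24 h at 37C, then treated with compounds plus the PDE inhibitor […] (300 uM solution added) for 30 min at 37C. Intracellular cAMP was measured by HTRF after 30 min lysis at room temperature.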
# TRPML1 agonist = qHTS for Agonists of the Human Mucolipin Transient Receptor Potential 1 (TRPML1); Mucolipin-1 (Homo sapiens), Q9GZU1; TRPML1-expressing cells, Ca2+ dye fluorescence, FDSS; host cell line not named in the record; reference of the full effect not given here; activation, % (concentration not given with the values); 410,000 compounds, 0.12% hits; AID 624414, 2012; in the data active = activation above about 50%; inconclusive = about 30% to 50%; inactive = below about 30%; further: 0% is about no effect; the text of the record puts the active cut at 80%
# Target sequence (Q9GZU1 whole entry, looked up): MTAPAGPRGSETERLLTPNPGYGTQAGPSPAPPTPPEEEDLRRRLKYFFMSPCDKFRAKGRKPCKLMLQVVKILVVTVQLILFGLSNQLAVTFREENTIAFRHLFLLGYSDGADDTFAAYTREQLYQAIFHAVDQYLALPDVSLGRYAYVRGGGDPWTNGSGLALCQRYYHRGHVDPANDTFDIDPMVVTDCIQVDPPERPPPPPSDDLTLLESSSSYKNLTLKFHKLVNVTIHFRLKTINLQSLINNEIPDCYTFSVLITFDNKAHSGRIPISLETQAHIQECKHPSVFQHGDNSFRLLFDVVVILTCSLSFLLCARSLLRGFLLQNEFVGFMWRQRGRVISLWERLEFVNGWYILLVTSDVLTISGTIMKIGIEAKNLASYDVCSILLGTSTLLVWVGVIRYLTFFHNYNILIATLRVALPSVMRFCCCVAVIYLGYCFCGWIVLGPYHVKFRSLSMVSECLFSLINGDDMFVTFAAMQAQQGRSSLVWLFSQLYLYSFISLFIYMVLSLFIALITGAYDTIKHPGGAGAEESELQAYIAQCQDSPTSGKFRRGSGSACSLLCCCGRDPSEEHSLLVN
#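 Tet-induced TRPML1-DL cells, 1,500 per well, cultured overnight, were loaded with a no-wash Ca2+ dye for 45–90 min. Calcium fluorescence was recorded on the FDSS for 110 s after compound addition, before the EC80 agonist (4 uM 54-4) was added.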
# gsp agonist = qHTS for Agonist of gsp, the Etiologic Mutation Responsible for Fibrous Dysplasia/McCune-Albright Syndrome: qHTS; Potency, µM (top dose mostly 76.9 µM), for inactives: at the top dose activation (cAMP increase), usual class: activators; 340,000 compounds, 0.13% hits; gsp mutant cells, cAMP HTRF, 30 min; control for the full effect not named in the record; AID 624287, 2012; active = well fitted activation curve with a large enough effect; inconclusive = small, poorly fitted or top-dose-only effect, or another doubt; inactive = no such curve, though single readings can be large or run the other way; cell line not stated here;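 further: phosphodiesterase inhibitor Ro 20-1724 added with compounds to block cAMP breakdown; potency means the concentration at half of the fitted maximal effect; nearly all actives have a fitted effect of over 60% in size; about a fifth of the inactives were tested at one dose only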
#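 Cells in DMEM/10% FBS with G418 were pretreated with compounds in DMSO plus […] (300 uM stock) for 30 min at 37C. cAMP was measured by HTRF (cAMP-d2 plus anti-cAMP antibody-K) after 30 min at room temperature.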
# TRPML1 blocker = qHTS for Inhibitors of the Human Mucolipin Transient Receptor Potential 1 (TRPML1). 390,000 compounds, 0.02% hits. AID 624415, 2012. TRPML1-inducible cells, Ca2+ dye fluorescence, FDSS; stronger effect = lower value; inhibition of EC80 agonist-evoked calcium signal. activity change, negative = inhibition, % (test concentration not listed); in the data active means activity change below about -50%; inconclusive means about -30% to -50%; inactive means above about -30%;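 further: stimulus is agonist 54-4 at its EC80 concentration; on the % scale 0 is the no-effect control and ±100 the full control effect; compound concentration not given in the record; the text of the record puts the active cut at -80%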
#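 TRPML1-DL cells, Tet-induced overnight (~16 h, 37 °C) at 1,500 cells/well, were loaded with Ca8 no-wash dye plus quencher for 45-90 min at room temperature. Compounds were pinned during FDSS kinetic reading; agonist 54-4 at EC80 (4 uM final) then added.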
# An asterisk follows results filed as active; ? = inconclusive; · = no result given; & = joins results of further samples; [ ] = dose if it differs, or a comment.
SMILES,ClpP mod,Menin MLL FP FL,gsp antag,TRPML1 agonist,gsp agonist,TRPML1 blocker
COc1ccc(CC(=O)OC(C)C(=O)NC2CCCCC2C)cc1 (configuration not stated),·,·,5%,-0.2,-19%[15.4 µM],-17
Cc1ccc(S(=O)(=O)N2CCN(C(=O)COC(=O)COc3cccc(C(F)(F)F)c3)CC2)c(C)c1,1.9%,·,9%,3.7,?,31
COc1ccc(CCNc2cc(C)nc3c(-c4ccccc4OC)cnn23)cc1OC,·,1.2,-26%,2.6,-14%,-15
Cc1cc(NC(=O)CCn2c(=O)c3cccn3c3cccnc32)ccc1Br,21%,·,·,-0.8,·,-11
O=C(O)C1CCN(S(=O)(=O)c2ccc(Oc3ccccc3)cc2)CC1,0.0%,0.5,-6%,-0.9,-21%,1
Cc1ccc(CONC(=O)c2ccc(OC(F)F)cc2)cc1,-1.5%,0.6,10%,-0.5,?,-23
CSc1nc(SCCN(C)C)c2c3c(sc2n1)COC(C)(C)C3,·,6.8,15%,1.9,-13%[15.4 µM],18
Cc1ccc(-n2ncc3c2CC(C)(C)CC3NC(=O)c2ccc[n+]([O-])c2)cc1 (configuration not stated),-27%,1.7,4%,0.3,-21%[15.4 µM],8
CC1CC(C)CN(C(=O)CNS(=O)(=O)c2cccs2)C1 (configuration not stated),·,9.3,11%,0.7,-13%,0
CCOc1ccc2c(c1)-c1c(ssc1=S)C(C)(C)N2C(=O)c1ccco1,-5.6%,2.7,9%,0.3,?,-2
Cc1cc(N2CCN(c3cccc(C)c3C)CC2)n2nc(C)c(-c3ccc(Cl)cc3)c2n1,?,·,·,0.5,·,1
COc1ccc(-c2cc3c(c4c2ccn4C)C2CCC3C2)cn1 (configuration not stated),?,·,·,1.8,·,23
CC1CCN(C(=O)CCS(=O)(=O)c2cc3c(cc2Cl)NC(=O)CO3)CC1,-0.9%&1.4%,-1.5,-3%,0.1&0.9,?,-8&-23
CC12C=CC(=O)C=C1CCC1C2CCC2(C)C(C(=O)CO)CCC12 (configuration not stated),·,·,-5%,-0.3,23%,36
C[C@H](CO)N1C[C@H](C)[C@@H](CN(C)S(=O)(=O)c2ccccc2)Oc2c(NC(=O)Nc3ccccc3)cccc2C1=O,-2.9%,·,-21%,-0.3,·,-3
CC(C)c1ccc(CNC(=O)C(=O)NCC2CCCO2)cc1 (configuration not stated),·,1.1,13%,-0.5,0%[15.4 µM],4
COCc1c(N)c(C)nc(Cl)c1C#N,·,-6.8,5%,-0.7,0%[15.4 µM],0
CCc1c(O)nc(SC2CC(=O)N(c3ccc(F)c(Cl)c3)C2=O)[nH]c1=O (configuration not stated),·,0.1,-8%,0.7,-8%,2
O=C(NC1CCCCC1)c1ccc(CNc2nc(=S)[nH]c3ccccc23)cc1,·,-0.2,-15%,0.3,6%[15.4 µM],4
O=C(NCC(c1cccs1)N1CCOCC1)c1cc(=O)[nH]c2ccccc12 (configuration not stated),·,·,5%,0.4,0%[15.4 µM],-6
O=C1NC(=O)/C(=C\c2ccc(Oc3cnccn3)cc2)S1,·,1.2,?,0.6,-1%[15.4 µM],-18
Cc1cccc(Nc2nc(N)nc(CN3CCN(Cc4ccc5c(c4)OCO5)CC3)n2)c1,-1.4%,4.8,5%,-0.7,0%,29
CN(c1cccc(NC(=O)Nc2cccc(Cl)c2)c1)S(C)(=O)=O,-3.9%,-0.4,?,-0.1,-10%,6
COCCSc1ccccc1C(=O)N1CCN(Cc2ccc3c(c2)OCO3)CC1,-1.2%,-2.2,2%,0.0,-13%,4
CCOC(=O)Nc1ccc(S(=O)(=O)Nn2cnnc2)cc1,-0.6%,-1.9,8%,0.4,-33%[inhibitor],11
COC(=O)CNC(=O)CN1C(=O)N(c2ccccc2)C(N(O)C(=O)Nc2ccccc2)C1(C)C (configuration not stated),-1.4%,5.3,8%,-0.4,-21%,12
CN(C(=O)OC(C)(C)C)[C@H](Cc1ccccc1)C(=O)N[C@H]1CCCCNC1=O,0.7%,·,14%,-0.8,·,-6
NC1=NS(=O)(=O)NC1c1cccc(Cl)c1 (configuration not stated),-0.4%,0.8,6%,-0.9,0%,1
Cn1cnc(S(=O)(=O)N2CCCC(C(=O)Nc3ccc(OC(F)(F)F)cc3)C2)c1 (configuration not stated),-0.8%,·,·,0.7,·,-2
COc1ccc(NC(=O)c2ccc(-n3nc(C)c[n+]3[O-])cc2)cc1,-3.5%,-0.6,-2%,0.5,-1%,32
Cc1cccc(OCC(O)CN2CCN(C3CCCCC3)CC2)c1 (configuration not stated),-2.8%,-2.0,14%,0.0,0%,25
COc1ccccc1NCC(O)COc1ccc(C(C)(C)C)cc1 (configuration not stated),·,-1.6,-7%,0.9,-14%[15.4 µM],20
Cc1nc(C)c(-c2csc(Nc3ccc(Cl)cn3)n2)s1,-22%,·,·,-0.5,?,-3
C[C@@H]1CN([C@@H](C)CO)S(=O)(=O)c2ccc(Br)cc2O[C@H]1CN(C)C(=O)c1ccccc1,-1.5%,·,·,0.7,-26%,11
S=c1[nH]nc(-c2ccco2)n1/N=C/c1cccs1,-0.9%,1.2,6%,-0.7,5%,-20
NC(=O)c1ccc(-n2nnnc2SCC(=O)Nc2ccccc2F)cc1,-1.6%,-0.8,10%,-0.5,9%[15.4 µM],-7
COc1ccc(/C=N\NC(=O)c2nn(C)cc2Cl)cc1CN1CCOCC1,-0.6%,-0.1,4%,-0.2,4%[15.4 µM],8
CCOC(=O)Nc1ccccc1C(=O)N1CCOCC1,-0.3%,4.3,21%,0.3,-25%,13
CC(=O)c1ccc(NC(=O)C(C)n2nc(-c3ccccc3)ccc2=O)cc1 (configuration not stated),-6.8%,·,·,14,·,-13
Cc1ccc2[nH]cc(CCNS(=O)(=O)c3ccc(F)cc3)c2c1,2.9%,-0.9,-1%,1.3,-52%[inhibitor],24
CCCCCC(C)NC(=S)NC(=O)c1cc(S(=O)(=O)N2CCOCC2)ccc1C (configuration not stated),?,·,-4%,2.4,-6%,23
COc1cc(NC(=O)CCCNC(=O)c2ccc(Cl)cc2)cc(OC)c1,·,6.0,-8%,-0.1,4%,4
CCC1(c2ccc(F)cc2)NC(=O)N(CC(=O)Nc2cccc(S(=O)(=O)N3CCCC3)c2)C1=O (configuration not stated),-1.3%,·,-8%,2.1,29%,-3
CCOc1ccccc1-n1c(SCC(=O)N2CCOCC2)nnc1-c1ccccn1,-0.6%,2.5,-7%,0.2,-28%,-24
CCOc1cc2c(Cl)ncnc2c(OCC)c1OCC,·,-7.9,3%,1.2,28%,10
COc1ccccc1NC(=O)C(=O)NCCCN1CCCC1=O,?,·,-13%,1.8,-4%[15.4 µM],-10
CC(C)CCOc1cccc(OCC(=O)NC2CCS(=O)(=O)C2)c1 (configuration not stated),0.2%,2.2,-3%,-0.6,-8%,18
CC(=O)c1cccc(NC(=O)c2ccccc2OCc2ccc(F)cc2)c1,·,3.2,-3%,2.5,26%,7
O=C1OCC(c2ccc(Cl)s2)=C1c1ccccc1[N+](=O)[O-],·,0.1,?,-0.1,-1%[15.4 µM],1
Cc1ccc(N2C(=O)[C@@H]3[C@H](C2=O)C2c4ccccc4C=CN2[C@@H]3C(=O)c2ccco2)cc1 (some centres not stated),-9.4%,?,3%,2.3,-21%,-5
# The listing continues:
SMILES,ClpP mod,Menin MLL FP FL,gsp antag,TRPML1 agonist,gsp agonist,TRPML1 blocker
O=C(Cn1nc(-c2ccccc2)nc1-c1ccccc1)N1CCOCC1,-0.7%,3.4,-2%,-0.3,4%,-3
O=[N+]([O-])c1ccc(S(=O)(=O)NCCc2cn3ccccc3n2)cc1,-2.9%,1.6,-2%,-0.1,-38%,1
CCOC(=O)c1ccc2c(c1)nc(SC/C(O)=C(\C#N)c1nc3ccccc3[nH]1)n2CC,2.8%,?,11%,-0.7,-57%[inhibitor],16
Cc1ccccc1/C=N/n1c(-c2cc(-c3ccccc3)n[nH]2)n[nH]c1=S,·,2.9,?,-0.2,?,7
CC[C@@H]1C(=O)[C@H](Cc2ccccc2)[C@H]2CCCC(=O)N3CC[C@@H]1[C@@H]23,0.4%&2.0%,·,10%,-0.9&-0.6,·,-10
COCCCN1C(=O)c2ccc(C(=O)O)cc2C1=O,-1.0%,1.1,8%,2.7,20%,7
CS(=O)(=O)N1CCN(C(=S)NCc2ccc(F)cc2)CC1,1.4%,7.0,8%,0.6,?,35
CCOc1ccc(CC(C(N)=O)C(N)=O)cc1CN(C)C,58%,-1.9,-10%,0.0,-25%,9
O=C(O)c1ccc(/C=N/Nc2ccc(F)cc2F)cc1,0.2%,1.6,-23%,3.4,-15%[15.4 µM],4
C=CCN=C(NC#N)SCC(=O)NC(C)(C)C,3.6%,1.5,-2%,1.3,0%,12

# Part of the list above, tab-delimited:
Molecule	ClpP mod	Menin MLL FP FL	gsp antag	TRPML1 agonist	gsp agonist	TRPML1 blocker
O=[N+]([O-])c1ccc(S(=O)(=O)NCCc2cn3ccccc3n2)cc1	-2.9%	1.6	-2%	-0.1	-38%	1
C=CCN=C(NC#N)SCC(=O)NC(C)(C)C	3.6%	1.5	-2%	1.3	0%	12
CS(=O)(=O)N1CCN(C(=S)NCc2ccc(F)cc2)CC1	1.4%	7.0	8%	0.6	?	35

# Later entries
SMILES,ClpP mod,Menin MLL FP FL,gsp antag,TRPML1 agonist,gsp agonist,TRPML1 blocker
CCCCCc1n[nH]c2c1CCCC2,-2.1%,4.5,-5%,0.6,5%,4
Cc1nc2n(c(=O)c1CCN1CCC(c3noc4cc(F)ccc34)CC1)CCCC2,0.1%&3.0%,-4.4,2%,-0.8&-0.4,·,43
COc1ccc(NC(=O)c2cc([N+](=O)[O-])ccc2NC(=O)CNC2CCCCC2C)c(OC)c1 (configuration not stated),0.8%,0.7,-27%,-0.3,15%[15.4 µM],21
COc1ccc(OC)c(-n2c(-c3cccc(O)c3)n[nH]c2=S)c1,-7.8%,4.1,-15%,0.6,5%,4
CN(C)C(=O)N1CCCC(C(=O)NCc2ccccc2)C1 (configuration not stated),-1.2%,-1.0,2%,0.4,-23%,1
Cc1c(NC(=O)C(C)OC(=O)c2ccc(Br)o2)c(=O)n(-c2ccccc2)n1C (configuration not stated),·,2.0,16%,-0.6,-2%[15.4 µM],-5

# Source: PubChem (National Center for Advancing Translational Sciences (NCATS))
